Cruzain Triton = qHTS Assay for Promiscuous and Specific Inhibitors of Cruzain (with detergent). Potency, µM, inactives show max response, negative = inhibition, most hits filed as inhibitors. purified cruzain, Z-FR-AMC fluorescence, 0.01% Triton. actives 0.43% (n = 200,000). Cruzipain (Trypanosoma cruzi), P25779. AID 1478, 2009;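 further: plate controls were neutral wells for no effect and buffer without enzyme for full effect; nearly all actives have a fitted effect of over 40% in size; top concentration of the series not given in the record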
Target sequence (P25779 123-467 limits assumed): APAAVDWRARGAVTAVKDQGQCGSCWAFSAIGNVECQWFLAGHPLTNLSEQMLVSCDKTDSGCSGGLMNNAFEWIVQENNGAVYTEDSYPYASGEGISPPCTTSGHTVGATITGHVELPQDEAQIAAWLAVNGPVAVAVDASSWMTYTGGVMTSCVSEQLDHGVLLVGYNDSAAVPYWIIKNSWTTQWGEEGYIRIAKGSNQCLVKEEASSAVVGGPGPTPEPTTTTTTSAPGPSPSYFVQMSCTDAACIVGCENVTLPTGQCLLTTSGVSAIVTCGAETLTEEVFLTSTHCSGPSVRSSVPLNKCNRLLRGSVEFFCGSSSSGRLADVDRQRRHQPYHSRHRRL
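Z-FR-AMC hydrolysis (2 uM substrate) by cruzain (1.5 nM) monitored kinetically at ex 360/em 450 nm after 15 min room-temperature compound exposure; 0.01% Triton X-100, pH 5.5, 5 mM DTT.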
StopGo reporter = High Throughput Screening for Foot and Mouth Disease Virus Antivirals; human cells with a luciferase reporter of 2A StopGo recoding; control for the full effect not named in the record; Potency, µM (top dose mostly 57.9 µM), for inactives: at the highest dose signal change, negative = less light; actives 1.2% (n = 410,000); AID 1159524, 2015; active = well fitted falling curve with a large enough effect; inconclusive = small, poorly fitted or top-dose-only effect; inactive = no such curve, though single readings can be large or run the other way; tested in HEK293T cells; further: nearly all actives have a fitted effect of over 45% in size; luciferase light after 4 h
Cruzain inh noDet = qHTS Assay for Promiscuous and Specific Inhibitors of Cruzain (without detergent). Cruzipain (Trypanosoma cruzi), P25779. purified cruzain, Z-FR-AMC fluorescence, no detergent. Potency, µM, inactives show max response, negative = inhibition, usual class: inhibitors. actives 2.3% (n = 200,000). AID 1476, 2009;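 further: plate controls were enzyme without inhibitor for no effect and buffer without enzyme for full effect; nearly all actives have a fitted effect of over 40% in size; top concentration of the series not given in the record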
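Purified cruzain at 1.5 nM, pre-incubated 15 min with compound at room temperature in 100 mM sodium acetate pH 5.5, 5 mM DTT, 0.00005% Triton X-100. Reaction started with 2 uM Z-FR-AMC; AMC fluorescence increase over 60 s gives rate.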
* hit, by the source's call; ? = inconclusive; & = joins results of further samples; [ ] = another dose, or the depositor's remark. Unless noted, the call rests on the fitted dose curve; in most records, active means well fitted curve in the direction sought with a large enough effect; inconclusive means small, poorly fitted or top-dose-only effect, or another doubt; inactive means no such curve, though single readings can be large; an effect the other way counts as inactive or inconclusive. Unless noted, on the % scale 0 is the no-effect control and ±100 the full control effect; potency means the concentration at half of the fitted maximal effect. Only part of the results is shown; count on the stated rates, not on these rows.

Structure	Cruzain Triton	StopGo reporter	Cruzain inh noDet
CCN(CC)CCOc1ccc2c(c1)C(=O)c1cc(OCCN(CC)CC)ccc1-2	3.2%	28%	2%
COc1ccccc1-c1cncnc1-n1ccnc1	-0.7%	-5%	4%
COCCn1c(=O)cnc2cnc(N3CCOCC3)nc21	-3.6%	-14%	-8%
CCCCC/C=C\C/C=C\C/C=C\C/C=C\CCCC(=O)NCCCC(=O)O	-4.4%&2.6%	-18%	?
COc1ncc2ncc(=O)n(C3CC3)c2n1	-7.6%	-4%	-6%
CC1(C)OC2CC3C4CCC5=CC(=O)CCC5(C)C4(F)C(O)CC3(C)[C@]2(C(=O)CCl)O1 (stereo partly drawn)	-2.0%	29%	?
CCCC(C)C1(CC)C(=O)NC(=O)NC1=O (stereo not drawn)	-2.8%	-8%	1%
COc1cccc(Cn2c(=O)c(-c3cccc(C#N)c3)nc3cnc(N4CCOCC4)nc32)c1	7.6%	-16%	-4%
C=C[C@@]1(C)CC(=O)[C@@]2(O)[C@@]3(C)[C@@H](O)CCC(C)(C)[C@@H]3[C@H](O)[C@H](OC(C)=O)[C@@]2(C)O1	-0.3%	-26%	10%
COc1ccc(CCC(=O)c2c(O)cc(OC3OC(CO)C(O)C(O)C3O[C@@H]3OC(C)C(O)C(O)C3O)cc2O)cc1O (stereo partly drawn)	0.5%	7%	?
c1ccc(-c2ccc(N3CCCC4(CCNCC4)C3)cc2)cc1	-3.3%	-21%	32µM*
O=C(c1cnccn1)N1CCC2(CC1)CN(C(c1ccccc1)c1ccccc1)C2	-2.1%	2%	-2%
O=c1c(-c2ccc(F)cc2)nc2cnc(N3CCOCC3)nc2n1C[C@H]1CCCO1	2.5%	6%	-6%
CN(C)C(=O)c1ccc(-c2cncnc2N(C)Cc2ccco2)cc1	2.0%	6%	7%
COc1ccc(C(=O)N2CCC3(CC2)CN(c2cccc(-c4ccccc4)c2)C3)cc1	-8.2%	?	21%
Cc1ccccc1-c1ccc2ncnc(N3CCN(C)CC3)c2c1	5.1%	-11%	-2%
COc1ccccc1-c1nc(NCc2cnc(C)cn2)c2ccccc2n1	-5.5%	1%	-18%
COc1ccc(-c2coc3c(OC)c(OC)cc(OC)c3c2=O)cc1	7.3%	1%	5%
O=C(c1ccncc1)N1CCC[C@@]2(CCN(Cc3ccccc3)C2)C1	0.7%	-8%	6%
N#CCCn1c(=O)cnc2cnc(Oc3ccccc3)nc21	-1.5%	-5%	-8%
COc1ccc(-n2c(=O)c(C)nc3cncnc32)cc1	-0.4%	-10%	4%
O=c1c(O)c(-c2ccc(O)c(O)c2)oc2c(O)c(O)cc(O)c12	0.9%	2%	3%
CCC(C)C(=O)OC1C[C@@]2(C)C(c3ccoc3)OC(=O)CC23OC2(C)OC34C(OC(=O)C(C)C)[C@]3(O)C(OC(=O)C5(C)OC5C)[C@]5(C)CC3(O)[C@](C)(C5CC(=O)OC)C14O2 (stereo partly drawn)	4.1%	-2%	?
Cn1c(=O)c(-c2ccc(Cl)cc2)nc2cnc(OCc3ccccc3)nc21	6.4%	8%	-3%
CC(C)NC(=O)N1CC2(CCN(C(=O)c3ccco3)CC2)C1	-1.5%	-4%	0%
Cc1noc(C)c1C(=O)N1CCC[C@@]2(CCN(c3ccccn3)C2)C1	-2.7%	-2%	-5%
CCS(=O)CCSP(=O)(OC)OC (stereo not drawn)	7.1%	-3%	-1%
O=C(c1csnn1)N1CCC2(CC1)CCN(c1ncccn1)CC2	-0.7%	-1%	-13%
CN1CC[C@@H]2CN3CCc4cccc(c43)[C@H]2C1	-1.9%	1%	1%
c1cncc(-c2nccc(-n3ccnc3)n2)c1	2.8%	1%	-3%
CN1CCN(c2cc(-c3ccc(N(C)C)cc3)ncn2)CC1	-6.6%	35%[activator]	-14%
COCCn1c(=O)c(-c2cc(F)cc(F)c2)nc2cnc(N(C)C)nc21	5.9%	-14%	3%
COc1ccccc1CNc1ncncc1-c1ccccc1OC	2.9%	-3%	12%
COc1ccc(-n2c(=O)c(CCc3ccccc3)nc3cnc(N(C)C)nc32)cc1	0.8%	0%	-1%
CC(C)CCCC(C)C1CCC2C3C(=O)C=C4CC(O)CC[C@@]4(C)C3CC[C@@]12C (stereo partly drawn)	0.8%	0%	-12%
COc1ccc(-n2c(=O)cnc3cnc(Nc4ccccc4)nc32)cc1	-4.5%	-2%	-10%
C=C1CCC(O)C/C1=C/C=C1\CCC[C@@]2(C)C(C(C)/C=C/C(C)C(C)C)CC[C@@H]12 (stereo partly drawn)	-2.6%	-13%	11%
Cc1noc(C)c1-c1nc(N2CCN(C)CC2)c2ccccc2n1	0.3%	-7%	1%
CC(=O)OC1CC2C(C)(C)C(O)C=C[C@@]2(C)C2CC[C@]3(C)C(=CC(=O)OC3c3ccoc3)[C@]12C (stereo partly drawn)	-1.4%	-10%	?
COC(=O)CC1C2(C)CC34OC5(C)O[C@@]6(C7/C(=C(/OC)C(C)C)C(=O)OC(c8ccoc8)[C@@]7(C)C(OC(=O)C(C)C)C(OC)[C@]6(O5)[C@@]13C)C(OC)[C@]4(OC)C2OC(C)=O (stereo partly drawn)	-7.9%	?	?
O=C(c1ccncc1)N1CCC2(CCCN(Cc3ccccc3)C2)CC1	2.7%	6%	-4%
N#Cc1cccc(-c2cc(NCc3cccs3)ncn2)c1	1.2%	35%[activator]	5%
COCC(=O)N1CCC[C@@]2(CCN(Cc3ccccc3OC)C2)C1	2.7%	2%	-7%
CN(C)c1ncc2nc(CCc3ccccc3)c(=O)n(CCC#N)c2n1	-3.9%	24%	3%
CN(N=O)C(=O)N[C@H]1C(O)OC(CO)[C@@H](O)[C@H]1O (stereo partly drawn)	4.7%	-2%	3%

Another view of some results above:
Every second line gives: Cruzain Triton	StopGo reporter	Cruzain inh noDet
> COC(=O)CC1C2(C)CC34OC5(C)O[C@@]6(C7/C(=C(/OC)C(C)C)C(=O)OC(c8ccoc8)[C@@]7(C)C(OC(=O)C(C)C)C(OC)[C@]6(O5)[C@@]13C)C(OC)[C@]4(OC)C2OC(C)=O (stereo partly drawn)
  -7.9%	?	?
> Cc1noc(C)c1-c1nc(N2CCN(C)CC2)c2ccccc2n1
  0.3%	-7%	1%
> CCS(=O)CCSP(=O)(OC)OC (stereo not drawn)
  7.1%	-3%	-1%
> O=C(c1ccncc1)N1CCC2(CCCN(Cc3ccccc3)C2)CC1
  2.7%	6%	-4%
> N#Cc1cccc(-c2cc(NCc3cccs3)ncn2)c1
  1.2%	35%[activator]	5%
> COCCn1c(=O)cnc2cnc(N3CCOCC3)nc21
  -3.6%	-14%	-8%
> O=C(c1csnn1)N1CCC2(CC1)CCN(c1ncccn1)CC2
  -0.7%	-1%	-13%

Later entries
Structure	Cruzain Triton	StopGo reporter	Cruzain inh noDet
O=C(Oc1ccccc1)N1CCC2(CC1)CN(c1ncccn1)C2	-8.2%	?	12%
COc1ccc(CNc2cc(-c3cccc(NS(C)(=O)=O)c3)ncn2)c(OC)c1	-3.0%	-13%	4%
O=C(O)[C@H]1CN[C@H](C(=O)O)C1	4.0%	19%	1%
O=c1c(CCc2ccccc2)nc2cnc(N3CCOCC3)nc2n1Cc1cccs1	0.7%	-15%	?
COc1cc(O)c(C)c(O)c1	5.1%	-12%	6%
CCc1ccc2c(O)c3c(cc2c1C(=O)OC)C(=O)c1c(O)ccc(O)c1C3=O	-8.6%	-20%	-4%
Cn1c(=O)c(CCc2ccccc2)nc2cnc(N3CCNCC3)nc21	-1.0%	?	2%
Cc1ncc2c(c1O)COP(=O)(O)OC2	2.9%	0%	0%
COc1ccc(-c2nc3cnc(OC)nc3n(Cc3cccs3)c2=O)cc1	1.2%	-4%	13%
O=C(Nc1cccc(F)c1)N1CCC2(CC1)CCN(C(=O)c1cc(C(F)(F)F)cc(C(F)(F)F)c1)CC2	-7.4%	-3%	?
CC1(C)CCC[C@@]2(C)C1CC[C@@](C)(O)[C@@H]2CC[C@@](C)(O)C1CO1 (stereo partly drawn)	1.8%	-11%	?
CC(C)=CC1C(CO)C1(C)C (stereo not drawn)	5.1%	-5%	1%
O=C(c1cccc(F)c1)N1CCC2(CCCN(Cc3ccncc3)C2)CC1	1.3%	-26%	-2%
COc1ccccc1CN1CCCC2(CCN(C(=O)Oc3ccccc3)CC2)C1	1.0%	-5%	-12%
C[C@H](NC[C@H](O)CP(=O)(O)CC1CCCCC1)c1ccc(Cl)c(Cl)c1	-0.8%	-9%&-8%	25%
O=c1cnc2cnc(Nc3ccccc3)nc2n1C[C@H]1CCCO1	-3.9%	-21%	-5%
CN(C)c1ncnc2ccc(-c3ccc4c(c3)OCO4)cc12	-9.9%	-14%	-10%
c1csc(CNc2cc(-c3ccoc3)ncn2)c1	-4.9%	9%	-13%
COc1cccc(Nc2ncc3ncc(=O)n(CCC#N)c3n2)c1	-3.7%	-10%	-27%
CC(C)=CCOc1cc2oc(=O)ccc2cc1O	-10.0%	16%	-4%
N#Cc1ccc(CN2CC3(CCN(C(=O)c4ccco4)CC3)C2)cc1	4.5%	-3%	-4%
O=c1c(CCc2ccccc2)nc2cnc(N3CCNCC3)nc2n1Cc1ccc(F)cc1	4.7%	-8%	-4%
CC(=O)/C=C\C1[C@]2(C)CCCC(C)(C)C2CC[C@@]1(C)O (stereo partly drawn)	3.3%	-5%	16%
CSc1ncnc2c1ncn2C1OC(CO)C(O)C1O (stereo not drawn)	1.5%	-10%	1%
CN1CCN(c2cc(-c3ccccc3C(F)(F)F)ncn2)CC1	6.0%	-1%	-2%
COc1ccccc1CCn1c(=O)c(-c2cccs2)nc2cncnc21	1.4%	-10%	-3%
Cn1c(=O)[nH]c(=O)c2[nH]cnc21	4.5%	1%	5%
COc1ccccc1CNc1ncncc1-c1ccccc1Cl	0.4%	-25%	-3%
C[C@@]12C=CC(=O)C=C1CCC1C2CC[C@]2(C)C(=O)CCC12 (stereo partly drawn)	4.7%	-16%	-2%
Cc1cccc(CNc2cc(-c3cccc(C#N)c3)ncn2)c1	-5.6%	-7%	-4%
Cc1nc2cnc(N3CCN(C)CC3)nc2n(CCc2ccccc2)c1=O	-13%	-5%	-17%
COc1ccc(C(=O)N2CCC[C@@]3(CCN(Cc4ccc(C#N)cc4)C3)C2)cc1	-1.4%	-19%	0%
Cc1noc(C)c1-c1nccc(N(C)C)n1	-1.6%	-6%	-4%
CC(=O)N1CCC2(CC1)CCN(c1ccc(-c3ccccc3)cc1)CC2	-3.3%	-23%	?
COc1ccc(-n2c(=O)c(-c3cc(F)cc(F)c3)nc3cnc(N4CCNCC4)nc32)cc1	-3.9%	-14%	1%
CC[C@@H]1Cn2c(c3nc(-c4ccccc4)nc-3n(C)c2=O)N1	-19%	-15%	-10%
COC(=O)/C=C\C(=O)N[C@@H]1CC[C@@]2(O)[C@H]3Cc4ccc(O)c5c4[C@@]2(CCN3CC2CC2)[C@@H]1O5	1.5%	-5%	3%
CNc1nc(-c2ccccc2C)nc2ccccc12	-5.9%	-5%	-7%
O=C(Nc1cccc(F)c1)N1CCC2(CC1)CCN(C(=O)c1csnn1)CC2	-2.8%	-6%	-11%
COc1ccc(-c2nc3cnc(N(C)C)nc3n(C3CC3)c2=O)cc1	-0.4%	16%	-4%
O=C(c1csnn1)N1CCC[C@@]2(CCN(c3ccncc3)C2)C1	-23%	-10%	-23%
CN(C)C(=O)c1ccc(-c2ccc3ncnc(NC4CC4)c3c2)cc1	1.7%	-7%	4%
Oc1ccc2c3c1O[C@H]1c4c(c5ccccc5n4Cc4ccccc4)C[C@]4(O)[C@H](C2)N(CC2CC2)CC[C@@]314	-2.7%	-25%	-1%
O=C(Oc1ccccc1)N1CCC2(CC1)CN(Cc1ccncc1)C2	-0.3%	-11%	-27%
CCN1C[C@]2(C)CC[C@H](OC)[C@@]34[C@H]1C1(OCO[C@@]15C[C@H](OC)C1C[C@]3(O)C5[C@H]1OC)[C@@H](O)[C@H]24	-2.5%	-11%	0%

Screening data (PubChem)
